Vaccinia stage: blocks a specific stage of Vaccinia orthopoxvirus infection, primary screen, cell-based, single point; Vaccinia-infected cells, mCherry/Venus stage reporter fluorescence; hits give low values; some inactives read as strong as hits; activity change (mCherry), % (test concentration not listed); hit rate 0.01% among 89,000;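 active means mCherry past -33% and 40 or more points under the early reporter, replicates agreeing; inconclusive means past -33% without that gap or agreement; tested in A549 cells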;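 further: scaled between vehicle wells and reference inhibitor wells; 23 nL library stock went into each well; one replicate is shown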
Vaccinia stage Venus: second read-out of Vaccinia stage, no call of its own (marks repeat the call); activity change (Venus), %; measured here: Venus reporter, other viral stage;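 negative = less Venus signal; first of two replicates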
Starred values were filed as active, the others as inactive; ? = inconclusive; · = no result given; & = joins results of further samples. Only part of the results is shown, so the mix of outcomes need not match the whole.

Start of the data: the first 6 entries, to show the layout:
SMILES	Vaccinia stage	Vaccinia stage Venus
C[C@H](CO)N1C[C@H](C)[C@@H](CN(C)S(=O)(=O)c2ccc(F)cc2)OCCCC[C@H](C)Oc2ccc(NC(=O)CCC(F)(F)F)cc2C1=O	-20.7	-8.5
C[C@@H]1CN([C@@H](C)CO)C(=O)c2ccccc2-c2ccccc2CO[C@H]1CN(C)S(=O)(=O)c1cn(C)cn1	10.9	6.1
Cc1ccc(S(=O)(=O)Nc2cccc3c2O[C@@H](CN(C)Cc2ccccc2)[C@H](C)CN([C@@H](C)CO)C3=O)cc1	-3.0	-2.9
CC(C)C#Cc1cnc2c(c1)C(=O)N([C@@H](C)CO)C[C@@H](C)[C@H](CN(C)C(=O)CC1CC1)O2	-2.8	0.7
C[C@@H]1CN([C@H](C)CO)S(=O)(=O)c2ccc(C3=CCCC3)cc2O[C@@H]1CN(C)CC1CCCCC1	-23.3	-27.0
COc1ccc(OC(=O)N(C)C[C@H]2OCc3ccccc3-c3ccccc3C(=O)N([C@H](C)CO)C[C@@H]2C)cc1	-0.6	-4.3

Main list (from the top)
SMILES	Vaccinia stage	Vaccinia stage Venus
C[C@H](CO)N1C[C@H](C)[C@@H](CN(C)S(=O)(=O)c2ccc(F)cc2)OCCCC[C@H](C)Oc2ccc(NC(=O)CCC(F)(F)F)cc2C1=O	-20.7	-8.5
C[C@@H]1CN([C@@H](C)CO)C(=O)c2ccccc2-c2ccccc2CO[C@H]1CN(C)S(=O)(=O)c1cn(C)cn1	10.9	6.1
Cc1ccc(S(=O)(=O)Nc2cccc3c2O[C@@H](CN(C)Cc2ccccc2)[C@H](C)CN([C@@H](C)CO)C3=O)cc1	-3.0	-2.9
CC(C)C#Cc1cnc2c(c1)C(=O)N([C@@H](C)CO)C[C@@H](C)[C@H](CN(C)C(=O)CC1CC1)O2	-2.8	0.7
C[C@@H]1CN([C@H](C)CO)S(=O)(=O)c2ccc(C3=CCCC3)cc2O[C@@H]1CN(C)CC1CCCCC1	-23.3	-27.0
COc1ccc(OC(=O)N(C)C[C@H]2OCc3ccccc3-c3ccccc3C(=O)N([C@H](C)CO)C[C@@H]2C)cc1	-0.6	-4.3
C[C@H](CO)N1C[C@H](C)[C@@H](CN(C)S(=O)(=O)c2cn(C)cn2)Oc2ccc(NC(=O)CCCCCC(=O)Nc3ccccc3N)cc2C1=O	-2.5	-1.8
Cc1ccc(-c2cnc3c(c2)C(=O)N([C@H](C)CO)C[C@@H](C)[C@@H](CN(C)Cc2ccccc2F)O3)cc1	-17.1	-11.0
Cc1noc(C)c1S(=O)(=O)N(C)C[C@H]1Oc2ccc(NC(=O)Cn3cnnn3)cc2CC(=O)N([C@@H](C)CO)C[C@H]1C	-7.5	-0.8
CO[C@@H](CN(C)C(=O)C1CCOCC1)[C@H](C)CN(C(=O)Nc1ccc(F)cc1)[C@@H](C)CO	18.2	10.7
C[C@@H]1CN([C@@H](C)CO)C(=O)c2cc(NS(=O)(=O)c3cn(C)cn3)ccc2O[C@@H]1CN(C)CC1CC1	11.2	20.3
C[C@@H]1CN([C@H](C)CO)C(=O)c2cc(NC(=O)C3CCCCC3)ccc2O[C@H]1CN(C)C	1.9	-4.3
COc1ccc(CN2C[C@H](O)COC[C@H]3O[C@H](CC(=O)NCc4ccccc4Cl)CC[C@@H]32)cc1	-28.9	-19.5
C[C@H](CO)N1C[C@H](C)[C@@H](CN(C)C)OCCCC[C@H](C)Oc2ccc(NC(=O)Cc3ccccc3)cc2C1=O	-7.9	-11.5
COc1ccc(S(=O)(=O)N(C)C[C@@H]2OCCCC[C@@H](C)Oc3ccc(NC(=O)NC(C)C)cc3C(=O)N([C@H](C)CO)C[C@H]2C)cc1	12.9	14.0
CCC(=O)N1CC2(C1)[C@@H](c1ccc(-c3ccc(C#N)cc3)cc1)[C@@H](CO)N2C(C)=O	3.0	7.0
CCCNC(=O)N1CCC2(CC1)CN(C(=O)COC)[C@@H](CO)c1c2c2ccc(OC)cc2n1C	12.2	-0.3
O=C([C@H]1[C@H](CO)[C@H]2Cn3c(ccc(-c4ccncc4)c3=O)[C@@H]1N2CCC(F)(F)F)N1CCCCC1	15.9	6.9
C[C@@H]1CN([C@@H](C)CO)C(=O)c2cc(NC(=O)CCN3CCOCC3)ccc2O[C@H]1CN(C)Cc1ccc(Cl)c(Cl)c1	10.5	4.9
CC=Cc1ccc2n(c1=O)C[C@H]1[C@H](CO)[C@@H](C(=O)NCCOC)[C@@H]2N1Cc1nccs1 (mixture of isomers)	0.9	1.2
O=C(C[C@H]1CC[C@@H]2[C@H](COC[C@@H](O)CN2C(=O)c2cccnc2)O1)NCc1ccc(-c2ccccc2)cc1	4.7	2.3
CO[C@H]1CN(C)C(=O)c2ccc(NC(=O)C3CCCCC3)cc2OC[C@@H](C)N(Cc2nccs2)C[C@H]1C	-24.0	-18.8
C[C@H]1CN([C@@H](C)CO)C(=O)c2cc(C#CCC3CCCC3)cnc2O[C@@H]1CN(C)C(=O)CC1CC1	-29.2&5.1	-22.1&7.1
COc1ccc2c3c([nH]c2c1)[C@@H](CO)N(C(=O)Nc1cccc(F)c1)CC31CCN(S(=O)(=O)c2ccccc2)CC1	-19.3	-19.2
C/C=C/c1ccc([C@H]2[C@@H](CO)N(C(=O)CN(C)C)C23CN(C(=O)C2CCC2)C3)cc1	4.9	6.4
C[C@@H]1CCCCO[C@@H](CN(C)C(=O)Nc2ccc(C(F)(F)F)cc2)[C@@H](C)CN([C@H](C)CO)C(=O)c2cc(NS(C)(=O)=O)ccc2O1	8.8	7.5
C[C@H]1CN([C@@H](C)CO)C(=O)c2cc(-c3cncnc3)cnc2O[C@H]1CN(C)C(=O)Cc1ccccn1	2.5	-4.4
O=C(NCC[C@H]1CC[C@@H](NS(=O)(=O)c2ccc(F)cc2)[C@H](CO)O1)c1ccc2c(c1)OCO2	-9.9	4.6
C/C=C/c1ccc2c(c1)O[C@@H](CN(C)S(=O)(=O)c1ccccc1OC)[C@H](C)CN([C@@H](C)CO)S2(=O)=O	-27.8	-18.8
COc1ccc(CN(C)C[C@H]2Oc3c(NS(=O)(=O)c4ccc(F)cc4)cccc3C(=O)N([C@@H](C)CO)C[C@@H]2C)cc1	10.7	7.5
COc1ccc(C#Cc2ccc([C@H]3[C@H](CO)N4CCCCN(Cc5ccccc5F)C[C@@H]34)cc2)cc1	?	·
C[C@@H]1CN([C@H](C)CO)C(=O)c2cc(NS(=O)(=O)c3ccccc3)ccc2O[C@@H](C)CCCCO[C@H]1CN(C)S(=O)(=O)c1cccs1	?	·
C[C@@H]1CN([C@@H](C)CO)C(=O)c2cccc(NS(=O)(=O)c3ccccc3)c2O[C@@H]1CN(C)Cc1ccc(Cl)c(Cl)c1	-5.2	1.7
COc1ccc(CN(C)C[C@H]2Oc3ccc(NC(=O)Nc4ccccc4)cc3CC(=O)N([C@H](C)CO)C[C@H]2C)cc1	-13.0	-1.7
Cc1noc(C)c1NC(=O)Nc1ccc2c(c1)C(=O)N([C@H](C)CO)C[C@H](C)[C@@H](CN(C)Cc1ccccc1)O2	12.1	12.1
C[C@@H]1CCCCO[C@H](CN(C)Cc2ccc(C(F)(F)F)cc2)[C@H](C)CN([C@@H](C)CO)C(=O)c2cc(NS(=O)(=O)c3cn(C)cn3)ccc2O1	-15.3	-20.5
CC(C)NC(=O)N(C)C[C@H]1Oc2c(NS(=O)(=O)c3ccc(Cl)cc3)cccc2C(=O)N([C@H](C)CO)C[C@@H]1C	3.4	7.0
O=C(N[C@@H]1CC[C@@H](CCn2cc(Cc3ccccc3)nn2)O[C@@H]1CO)c1ccccn1	6.1	7.9
C[C@@H]1CN([C@H](C)CO)C(=O)c2cccc(NS(=O)(=O)c3cn(C)cn3)c2O[C@@H]1CN(C)Cc1ccc(Cl)c(Cl)c1	2.4	1.0
C[C@@H]1CN([C@H](C)CO)C(=O)c2cc(NS(=O)(=O)c3ccccc3)ccc2O[C@@H]1CN(C)Cc1ccc(Oc2ccccc2)cc1	?	·
O=C(C[C@H]1C=C[C@H](NC(=O)C2CCOCC2)[C@@H](CO)O1)Nc1nccs1	8.7	14.5
COCC(=O)Nc1ccc2c(c1)[C@@H]1C[C@@H](CC(=O)N[C@H](C)c3ccccc3)O[C@H](CO)[C@@H]1O2	25.3	16.6
C[C@@H]1CN([C@H](C)CO)C(=O)c2cccc(NC(=O)Nc3ccc4c(c3)OCO4)c2O[C@@H]1CN(C)Cc1ccc(Cl)c(Cl)c1	-30.8	-29.1
CCNC(=O)[C@@H]1[C@@H](CO)[C@@H]2Cn3c(cccc3=O)[C@@H]2N1C(=O)C1CCCC1	8.9	13.2
CNC[C@H]1Oc2ccc(NC(=O)Cn3cnnn3)cc2C(=O)N([C@@H](C)CO)C[C@@H]1C	7.5	11.8
CC(C)CC#Cc1ccc2c(c1)O[C@H](CN(C)C(=O)C1CCOCC1)[C@H](C)CN([C@@H](C)CO)S2(=O)=O	-7.6	-9.2
Cc1cc(C(=O)Nc2cccc3c2O[C@H](CN(C)Cc2ccc(Oc4ccccc4)cc2)[C@@H](C)CN([C@H](C)CO)C3=O)n(C)n1	-10.2	-12.3
CC(C)NC(=O)N1CCCCN2[C@H](CO)[C@@H](c3ccc(C#C[C@@H](C)O)cc3)[C@H]2C1	39.0	18.7
C[C@@H]1CCCCO[C@H](CN(C)C(=O)CCC(F)(F)F)[C@@H](C)CN([C@@H](C)CO)C(=O)c2cc(NC(=O)C3CCCCC3)ccc2O1	?	·
Cc1noc(C)c1NC(=O)N(C)C[C@H]1Oc2ccc(NC(=O)Nc3ccccc3)cc2C(=O)N([C@H](C)CO)C[C@H]1C	14.0	12.9
CC(C)NC(=O)N(C)C[C@@H]1Oc2ccc(NC(=O)CCCN(C)C)cc2C(=O)N([C@@H](C)CO)C[C@H]1C	17.9	17.4
O=C(Cc1ccccc1)N1CCCCN2[C@H](C1)[C@@H](c1ccc(-c3ccccc3)cc1)[C@@H]2CO	?	·
COc1ccc(CN(C)C[C@H]2OCCCC[C@H](C)Oc3ccc(NC(=O)Nc4ccc5c(c4)OCO5)cc3C(=O)N([C@@H](C)CO)C[C@H]2C)cc1	?	·
C[C@@H]1CN([C@@H](C)CO)C(=O)c2cc(C#CC3CCCC3)cnc2O[C@@H]1CN(C)C(=O)C1CCC1	2.0	1.8
C[C@H](CO)N1C[C@H](C)[C@@H](CN(C)C(=O)Nc2ccc3c(c2)OCO3)OCCCC[C@H](C)Oc2ccc(N(C)C)cc2C1=O	3.7	-2.1
COc1ccccc1CNC(=O)C[C@@H]1C[C@@H]2c3cc(NC(=O)CN(C)C)ccc3O[C@@H]2[C@@H](CO)O1	-2.6	9.3
C[C@@H]1CN([C@@H](C)CO)C(=O)Cc2cc(NS(=O)(=O)c3ccc(Cl)cc3)ccc2O[C@H]1CN(C)C(=O)Nc1ccc(C(F)(F)F)cc1	-16.7	-1.7
C[C@H](CO)N1C[C@H](C)[C@H](CN(C)C(=O)C2CCOCC2)Oc2ncc(C#Cc3ccccc3F)cc2C1=O	9.6	1.9
C[C@H](CO)N1C[C@H](C)[C@@H](CN(C)S(=O)(=O)c2ccc(F)cc2)Oc2ncc(Br)cc2C1=O	7.0	6.6
CCCC#Cc1ccc2c(c1)O[C@@H](CN(C)C(=O)C1CCC1)[C@@H](C)CN([C@@H](C)CO)S2(=O)=O	?	·

Another view of part of the listing above.
Compound | Vaccinia stage | Vaccinia stage Venus
COc1ccccc1CNC(=O)C[C@@H]1C[C@@H]2c3cc(NC(=O)CN(C)C)ccc3O[C@@H]2[C@@H](CO)O1 | -2.6 | 9.3
C[C@@H]1CN([C@@H](C)CO)C(=O)Cc2cc(NS(=O)(=O)c3ccc(Cl)cc3)ccc2O[C@H]1CN(C)C(=O)Nc1ccc(C(F)(F)F)cc1 | -16.7 | -1.7

Remaining list, next part:
SMILES	Vaccinia stage	Vaccinia stage Venus
COc1cccc(NC(=O)N[C@@H]2C=C[C@@H](CC(=O)N3CCOCC3)O[C@H]2CO)c1	6.0	-1.3
C[C@@H]1CN([C@@H](C)CO)C(=O)Cc2cc(NS(=O)(=O)c3ccc(Cl)cc3)ccc2O[C@@H]1CN(C)C	1.6	2.9
CCOC(=O)CCCCCC(=O)Nc1ccc2c(c1)C(=O)N([C@@H](C)CO)C[C@H](C)[C@H](CN(C)C(=O)c1ccccc1)OCCCC[C@H](C)O2	0.7	-1.5
C/C=C/c1ccc2c(c1)O[C@H](CN(C)Cc1ccccc1)[C@@H](C)CN([C@@H](C)CO)S2(=O)=O	?	·
O=C(C[C@H]1CC[C@H]2NC[C@@H](O)COC[C@@H]2O1)NCCN1CCCC1	15.0	14.5
C=CCNC(=O)[C@@H]1[C@H]2C(=O)O[C@H](c3ccccc3)[C@H](c3ccccc3)N2[C@H](c2ccccc2OCCO)[C@@]12C(=O)Nc1ccc(C#CCNC(N)=O)cc12	30.6	7.9
O=C(C[C@@H]1C=C[C@H](NC(=O)CCN2CCCCC2)[C@H](CO)O1)Nc1ccccc1	-9.9	6.8
C[C@H]1CN([C@@H](C)CO)C(=O)c2cc(N(C)C)ccc2O[C@H]1CN(C)C	3.8	1.6
C[C@@H]1CN([C@@H](C)CO)C(=O)c2cc(C3=CCCC3)cnc2O[C@@H]1CN(C)Cc1cccc(F)c1	-14.2	-6.3
COCc1cn(CC[C@H]2CC[C@H](NC(=O)c3ccncc3)[C@H](CO)O2)nn1	-4.3	-6.1
C[C@@H]1CN([C@@H](C)CO)C(=O)c2cccc(NS(=O)(=O)c3cccs3)c2O[C@H]1CN(C)Cc1ccc(-c2ccccc2)cc1	?	·
CCC(=O)Nc1ccc2c(c1)C(=O)N(C)[C@@H]1CC[C@@H](CC(=O)N[C@@H](C)c3ccccc3)O[C@H]1CO2	11.3	4.2
COc1ccc(NC(=O)N2CCCCN3[C@H](CO)[C@@H](c4ccc(-c5ccccc5C)cc4)[C@H]3C2)cc1	?	·
C[C@H](CO)N1C[C@H](C)[C@@H](CN(C)C)Oc2c(NC(=O)c3ccncc3)cccc2C1=O	19.0	8.5
CO[C@H](CN(C)Cc1ccc2c(c1)OCO2)[C@H](C)CN(C(=O)Nc1ccc(F)cc1)[C@H](C)CO	4.4	1.7
